# NPYLR7 ag – agonists of mosquito NPYLR7 receptor, primary screen, cell-based, Aedes aegypti, calcium fluorescence, mosquito biting behavior; Aedes aegypti neuropeptide Y-like receptor 7 (NPYLR7); HEK293T NPYLR7/Galpha15, GCaMP6s calcium fluorescence; activation, % at 10 µM; 270,000 tested, 0.15% active; in the data active = activation above about 40%;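 also: 0% = vehicle and 100% = reference agonist at the receptor; some compounds past the cut are filed as inactive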
# NPYLR7 ag max-min – recorded beside NPYLR7 ag, whose call it bears; activation, %; measured here: Max-Min RFU normalised activation; some inactives read as strong as hits;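 span of the calcium signal over five minutes; 0% = vehicle and 100% = native peptide agonist; compound fluorescence can raise it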
# * = called active by the depositor; & = joins results of further samples. Not all compounds are listed; the hit share may differ from the screen's.
SMILES,NPYLR7 ag,NPYLR7 ag max-min
CN=c1scc(-c2ccc(Cl)cc2)n1N=Cc1ccc(C#N)cc1,4,4
CC(=O)Nc1cccc(-c2ccc(C(=O)Nc3cccnc3)o2)c1,-4,-7
CCOC(=O)CCC(=O)N1CCC(Cc2ccc(NC(C)=O)cc2)CC1,2,13
Cc1cc(C(=O)N2CCC3(CCCN(Cc4ccc(F)c(F)c4)C3)C2)no1 (stereo not drawn),1,-3
CC(=O)NC1=NN(C(C)=O)C2(S1)C(=O)N(Cc1ccc(OC(C)C)cc1)c1ccccc12 (stereo not drawn),8,7
CCNc1ncc(C(=O)N2CCC(c3[nH]ncc3-c3cccc(F)c3)CC2)cn1,14,9
Cc1ccc2oc(C(=O)N3CCCC(O)C3)c(C)c2c1 (stereo not drawn),14,6
CNC(=O)C12CC3CC(CC(C3)C1)C2,7,6
COc1ccc(-c2nn(-c3ccccc3C)cc2CN2CCCO2)cc1F,8,5
CCOC(=O)c1ccc(NC(=O)N2CCC3(CC2)C(=O)N(CC(=O)NCc2ccc4c(c2)OCO4)CN3c2ccccc2)cc1,-6,-5
O=c1[nH]c(SCc2cccc(Cl)c2)nc2c1cnn2CCO,3,0
O=C(Cn1cnc([N+](=O)[O-])n1)Nc1ccc(Cl)c(Cl)c1,-7,-10
CC1C(=O)N(c2ccc(F)cc2F)CCN1C(=O)Cc1ccccc1 (stereo not drawn),0,9
O=C(NCC1CCCN(Cc2cccn2-c2cccnc2)C1)c1ccc(-c2ccccc2)cc1 (stereo not drawn),9,6
Cc1ccc(Cn2nnc(C(=O)Nc3ccc(C)cc3C)c2N)cc1,3,10
Cc1noc(C)c1C(C)NC(=O)C(c1cc(Cl)cc(Cl)c1)N(C)C (stereo not drawn),13,11
CCn1nc(CNC(=O)c2cccc(C3CCNC3)c2)c2ccccc21 (stereo not drawn),1,0
CCCC1C(=O)N2C(N(C)C)=Nc3ccc(C)cc3N2C1=O (stereo not drawn),9,-6
CCc1cc2c(SCC(=O)c3[nH]c(C)c(C(C)=O)c3C)ncnc2s1,13,8
CC(C)(NC(=O)C1C2CCCC21)c1ccc2c(c1)OCCO2 (stereo not drawn),-19,-19
Cc1ccc(-c2cc(CC(=O)Nc3nc(C)cs3)no2)cc1,11,14
Cc1cccc2c1NC1(CCN(S(=O)(=O)c3ccc(Br)cc3)CC1)NC2=O,-2,-4
CC(Sc1ncc2ccccn12)C(=O)NCc1ccco1 (stereo not drawn),5,2
CCC(C)N(Cc1ccc(S(C)(=O)=O)cc1)Cc1ccsc1 (stereo not drawn),5,4
N#CCOc1ccc2c3c(c(=O)oc2c1)CCC3,3,-1
Cc1cc(NC(=O)COc2ccccc2C)n(-c2ncnc3c2cnn3-c2cccc(C)c2C)n1,4,3
Cc1cc(C)c(NC(=O)CSc2ccc3nnc(-c4ccncc4)n3n2)c(C)c1,-6,-6
CCCCCCN(C(=O)COCc1ccccc1)C(C)c1nc2ccccc2c(=O)n1-c1ccccc1OC (stereo not drawn),15,15
CC(=O)c1c(C)[nH]c(C(=O)NC(C)c2ccc3ccccc3c2)c1C (stereo not drawn),0,-1
CC(C)S(=O)(=O)NC(=O)C1(C)CCN1C(=O)Cc1ccc(C(C)(C)C)cc1 (stereo not drawn),-3,-8
CC(Oc1cccc(C#N)c1)C(=O)N1CCN(C2CCCC2O)CC1 (stereo not drawn),8,10
Cc1cc(C)c(S(=O)(=O)N2CCC3(CC2)C(=O)N(CC(=O)Nc2ccccc2)CN3c2ccccc2)c(C)c1,28,31
Cc1cn2c3c(=O)n(Cc4c(F)cccc4Cl)c(=O)n(C)c3nc2n1Cc1ccco1,0,1
C#CCOc1ccccc1CNC(=O)Nc1ccc(F)c(N2CCCC2=O)c1,-1,-3
COc1cc(CO)ccc1OCC(=O)NCCc1ccc(F)cc1,-1,-1
COC(=O)c1ccccc1NC(=O)N1CCc2ccccc2C1c1ccc(Cl)cc1 (stereo not drawn),23,10
CCc1ccccc1N1CCN(S(=O)(=O)c2ccc(Cl)cc2)C(C)C1=O (stereo not drawn),7,16
CCN(CCn1cccn1)Cc1c(C(=O)N2CCCCCCC2)nc2sccn12,0,3
COc1ccc(-c2ccc3c(c2)N(Cc2ccccc2Cl)C(=O)COC3)cn1,10,5
CCCNC(=O)N(CCN(C)C)Cc1nccn1Cc1ccc(OC)cc1,19,19

# Grouped by structure, those above containing a Cl atom
SMILES,NPYLR7 ag,NPYLR7 ag max-min
CN=c1scc(-c2ccc(Cl)cc2)n1N=Cc1ccc(C#N)cc1,4,4
O=c1[nH]c(SCc2cccc(Cl)c2)nc2c1cnn2CCO,3,0
O=C(Cn1cnc([N+](=O)[O-])n1)Nc1ccc(Cl)c(Cl)c1,-7,-10
Cc1noc(C)c1C(C)NC(=O)C(c1cc(Cl)cc(Cl)c1)N(C)C (stereo not drawn),13,11
Cc1cn2c3c(=O)n(Cc4c(F)cccc4Cl)c(=O)n(C)c3nc2n1Cc1ccco1,0,1
COC(=O)c1ccccc1NC(=O)N1CCc2ccccc2C1c1ccc(Cl)cc1 (stereo not drawn),23,10
CCc1ccccc1N1CCN(S(=O)(=O)c2ccc(Cl)cc2)C(C)C1=O (stereo not drawn),7,16
COc1ccc(-c2ccc3c(c2)N(Cc2ccccc2Cl)C(=O)COC3)cn1,10,5

# Continued.
SMILES,NPYLR7 ag,NPYLR7 ag max-min
CN(C)c1ccc(CNC(=O)c2ccc(Cl)cc2O)cn1,5,5
CC(C)N(C(=O)/C=C/c1c(Cl)cccc1Cl)C(C)C,-2,3
CCC(CC)c1cc(CNC(=O)NC2CCCCC2O)on1 (stereo not drawn),4,3
CN1CCn2c1nc(N1CCCCC1)nc2=O,11,8
O[C@H]1C[C@@H]2C[C@H](c3ccccn3)OC[C@]2(O)[C@@H]1NCCc1ccccc1,2,10
Cc1ccc(C(=O)N(CC(=O)N(Cc2cccn2Cc2ccccc2Cl)CC(C)C)C(C)C)cc1[N+](=O)[O-],2,16
Cc1c(NCc2cccnc2)cccc1C(=O)N(C)C(C)c1ccncn1 (stereo not drawn),10,-1
Cc1cc(C)c2c(CC(=O)N3CCC4(CN(C)C(=O)O4)C3)coc2c1C (stereo not drawn),7,5
CCOc1ccc(NC(=O)N2CCc3nc(-c4ccccc4)nc(N4CCC(C)CC4)c3C2)cc1,-2,6
COc1cc(NC(=O)CN2CCSC2=O)cc(OC)c1OC,7,5
CC1(C)OC2OC(C(=O)NNC(=O)Cc3ccccc3)C3OC(C)(C)OC3C2O1 (stereo not drawn),-6,-9
CC(C)CNC(=O)c1ccccc1N1CCC(NC(=O)c2ccc(Cl)c(Cl)c2)CC1,0,8
CCOC(=O)N1CCC(N2CCCC(CCC(=O)NCc3cccc(OC)c3)C2)CC1 (stereo not drawn),13,1
CC1=NNc2nc3c(c(=O)n(Cc4ccc(Br)cc4)c(=O)n3C)n2C1,7,8
CC(SCc1nc(N)nc(N(C)C)n1)C(=O)Nc1ccc2c(c1)CCC2 (stereo not drawn),4,11
Cc1cccc(NC(=O)CCC2CCN(C(=O)C3=CCCC3)CC2)c1,5&11,1&1
COCc1nn2c(N)c(C#N)nnc2c1-c1ccc(F)cc1,-11,-16
CCNC(=O)NC(=O)CSc1nnc(-c2cc3c(s2)CCC(CC)C3)n1C (stereo not drawn),11,3
O=C(Nc1c(-c2ccccc2)nc2ccccn12)C1CCC1,-6,-1
CCOC(=O)c1cc(-c2ccc(N3CCN(C(=O)CCC(=O)OC)CC3)cc2)n(-c2cccc(F)c2)n1,3,0

# Reformatted tab-delimited: two of the compounds above
SMILES	NPYLR7 ag	NPYLR7 ag max-min
CCOC(=O)N1CCC(N2CCCC(CCC(=O)NCc3cccc(OC)c3)C2)CC1 (stereo not drawn)	13	1
CC1=NNc2nc3c(c(=O)n(Cc4ccc(Br)cc4)c(=O)n3C)n2C1	7	8

# (next part)
SMILES,NPYLR7 ag,NPYLR7 ag max-min
O=C(O)c1ccc2nc3c4ccccc4c4ccccc4c3nc2c1,2,2
Cc1ccc(C)c(NC(=O)CN(C)C(=O)Cn2c(=O)n(C)c3ccccc32)c1,12,14
COc1ccc(-c2csc(C(O)c3ccc(F)c(F)c3)n2)cn1 (stereo not drawn),5,-1
CNC(=O)c1csc(N2CCN(Cc3ccccc3)C2=O)n1,-1,-3
Cc1cc(C)c(C(=O)O)c(=O)[nH]1,-3&5,-5&2
Cc1cc(CC(C)NC(=O)c2cn3ccsc3n2)n[nH]1 (stereo not drawn),2,1
O=C(NCC12CC3CC(CC(C3)C1)C2)c1cnn2cc(Br)cnc12,-1,7
Cc1oc(-c2ccccc2NS(=O)(=O)c2cccc(F)c2)nc1CNC(=O)CC(C)C,5,3
CCOC(=O)C1(CC2CCCCO2)CCN(C(=O)C#Cc2ccccc2)CC1 (stereo not drawn),15,3
O=c1cnnc(SCc2ccc(C(F)(F)F)cc2)[nH]1,-1,-2
Cc1ncsc1CCC(=O)N1CCCC(Nc2ccc(F)c(F)c2)C1 (stereo not drawn),7,4
CN(CCNC(=O)CC1Sc2ccccc2NC1=O)c1ccccc1 (stereo not drawn),20,5
O=S(=O)(c1ccc(Cl)cc1)N1CCN(C2c3ccccc3CCc3ccccc32)CC1,3,2
Cc1nc(Cl)cc(NCCS(=O)(=O)N2CCSCC2)n1,16,11
COC(=O)CN1C(=O)CNC12CCN(C(=O)Cc1ccc(F)c(F)c1)CC2,-1,24
COC1(C)CC(NC(=O)c2cccc(-n3cncn3)c2)C1(C)C (stereo not drawn),-21,-24
CCCCCCCOc1ccc(NC(=O)N2CC(=O)N3CCc4ccccc4C3C2)cc1 (stereo not drawn),28,16
Cc1ccc(Cl)c(C(=O)NC2CCc3[nH]c4cc(Cl)cc(Cl)c4c3C2)c1 (stereo not drawn),26,17
O=C(Nc1ccc2c(c1)OCO2)c1cc(-c2ccc(Cl)c(Cl)c2)nc2ccccc12,20,16
Cc1ccc(Nc2nc(-c3cnc(N4CCCCC4)nc3C)cc(=O)[nH]2)cc1,1,-1
O=C(O)c1ccc(-n2c(Cc3ccccc3F)n[nH]c2=O)cc1,3,-8
Cc1noc(C)c1CCC(=O)N1CCCC(O)(CO)CC1 (stereo not drawn),7,7
O=C1c2cccc([N+](=O)[O-])c2C(=O)N1CNc1cc(Cl)ccc1Cl,0,-1
CN(C)C1(C(=O)NCCOc2cccnc2)Cc2ccccc2C1,24,8
Cc1cc(N2CCCC2)nc(Nc2ccc(NC(=O)c3ccc4ccccc4c3)cc2)n1,11,6
CC(C)OC(=O)OCCNC(=O)c1cc2ccccc2oc1=O,4,1
Cc1cc(C)n(-c2cc(N3CCN(S(=O)(=O)Cc4ccccc4)CC3)nc(C)n2)n1,-6,-13
CCOc1cccc(CN2CCN(c3nnnn3-c3ccccc3)CC2)c1O,30,12
CCOC(=O)CCC(=O)Nc1ccc(C2SCC(=O)N2c2ccc(OCC)cc2)cc1 (stereo not drawn),5,14
O=C(Nc1ccc(N2CCCCC2)cc1)c1ccc(Cl)s1,3,2
CCOC(=O)N1CCc2c(sc(NC(=O)c3ccc(OC)cc3)c2-c2nc3ccccc3s2)C1,-1,-3
O=C(NCCCC(=NO)c1ccccc1)c1ccc(NS(=O)(=O)c2ccc3c(c2)OCCO3)cc1,-2,22
